# ClpP mod: qHTS Assay for Activators of ClpP; ATP-dependent Clp protease proteolytic subunit (Bacillus subtilis (strain 168)), P80244; 340,000 compounds, 1.9% hits; Potency, µM (doses to about 57.5 µM), for inactives: top-dose activity change, negative = active; AID 651965, 2013; purified B. subtilis ClpP, FRET peptide cleavage, 20 min; active = well fitted falling curve with a large enough effect; inconclusive = small, poorly fitted or top-dose-only effect; inactive = no such curve, though single readings can be large or run the other way; also: potency is read from the fitted curve at half-maximal effect; the source files actives as falling curves though it sought activators and does not explain the sign; nearly all actives have a fitted effect of over 65% in size; many hits overshoot -100%
#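 Purified B. subtilis ClpP, 10 microg/mL final in Tris/HCl pH8 with KCl, BSA, glycerol and Tween-20, cleaved an Abz/nitrotyrosine-quenched decapeptide. Fluorescence (ex 320, em 430) was read at 0 and 20 min at room temperature. Delta was normalized to 5.8 microM ADEP and DMSO/no-enzyme controls.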
# Sfp PPTase inh: blocks B. subtilis Sfp PPTase activity | Q9F4F7 | Biochemical Sfp PPTase activity, qHTS | Potency, µM, inactives show max response, negative = inhibition, actives largely listed as inhibitors | 310,000 compounds, 3.5% hits | AID 1490; active = well fitted inhibition curve with a large enough effect; inconclusive = small, poorly fitted or top-dose-only effect, or another doubt; inactive = no such curve, though single readings can be large or run the other way;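 also: the enzyme is Sfp with the accession as filed and its product quenches rhodamine fluorescence; potency is read from the fitted curve at half-maximal effect; 0% = enzyme reaction without inhibitor and -100% = no enzyme wells; top concentration of the series not given in the record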
#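 Sfp 15 nM + cpd, 15 min RT; start w/ rhodamine-CoA 5 uM, BHQ-2-YbbR 12.5 uM (final); 50 mM Hepes pH 7.6, 10 mM MgCl2, 0.01% NP-40, 0.01% BSA; read 525/598 nm at 0 and 30 min.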
# gsp agonist: gsp mutant agonism; gsp mutant cells, cAMP HTRF, 30 min; control for the full effect not named in the record; Potency, µM (series often up to 76.9 µM), without a hit: at the highest dose activation (cAMP increase), usual class: activators; 340,000 compounds, 0.13% hits; active = well fitted activation curve with a large enough effect; inconclusive = small, poorly fitted or top-dose-only effect, or another doubt; inactive = no such curve, though single readings can be large or run the other way; cell line not stated here;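 also: phosphodiesterase inhibitor Ro 20-1724 added with compounds to block cAMP breakdown; potency is read from the fitted curve at half-maximal effect; nearly all actives have a fitted effect of over 60% in size; about a fifth of the inactives were tested at one dose only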
#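 Cells in DMEM/10% FBS with G418 were pretreated with compounds in DMSO plus […] (300 uM stock) for 30 min at 37C. cAMP was measured by HTRF (cAMP-d2 plus anti-cAMP antibody-K) after 30 min at room temperature.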
# TRPV1 potentiator: enhances activation of the human vanilloid receptor TRPV1; TRPV1-expressing cells, Fluo-8 calcium influx, capsaicin EC20 potentiation; host cell line not named in the record; control for the full effect not named in the record; potentiation, % at 8.33 µM; 320,000 compounds, 0.02% hits; AID 540277; active means potentiation above 80%; inconclusive means 30% to 80%; inactive means below 30%; also: 0% is about no effect
# Target sequence (Q8NER1 whole entry, looked up): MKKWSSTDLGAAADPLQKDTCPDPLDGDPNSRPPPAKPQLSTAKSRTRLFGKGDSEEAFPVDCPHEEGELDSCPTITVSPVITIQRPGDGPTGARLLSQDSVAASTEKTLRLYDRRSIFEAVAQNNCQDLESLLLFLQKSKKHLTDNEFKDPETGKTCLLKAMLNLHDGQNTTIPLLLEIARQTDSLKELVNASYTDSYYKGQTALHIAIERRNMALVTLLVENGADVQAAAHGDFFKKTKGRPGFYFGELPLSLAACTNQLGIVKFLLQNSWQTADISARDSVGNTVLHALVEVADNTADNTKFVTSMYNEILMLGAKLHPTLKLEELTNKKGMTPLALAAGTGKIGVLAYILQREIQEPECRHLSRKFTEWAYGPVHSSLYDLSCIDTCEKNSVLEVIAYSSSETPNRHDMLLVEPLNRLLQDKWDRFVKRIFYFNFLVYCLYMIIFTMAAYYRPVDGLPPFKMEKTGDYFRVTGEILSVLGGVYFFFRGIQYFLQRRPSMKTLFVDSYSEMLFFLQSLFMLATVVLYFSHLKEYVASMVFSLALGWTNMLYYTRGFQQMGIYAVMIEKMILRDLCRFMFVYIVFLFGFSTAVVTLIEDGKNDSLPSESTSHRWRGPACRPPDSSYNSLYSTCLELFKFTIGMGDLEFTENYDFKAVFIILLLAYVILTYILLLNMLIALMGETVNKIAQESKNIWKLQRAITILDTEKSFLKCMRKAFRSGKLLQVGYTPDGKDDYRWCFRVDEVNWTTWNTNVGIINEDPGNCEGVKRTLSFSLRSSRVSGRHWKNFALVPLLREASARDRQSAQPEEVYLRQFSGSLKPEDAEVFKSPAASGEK
#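 TRPV1-expressing cells were cultured overnight at 35.5C and loaded with Fluo-8 calcium dye for 40 to 90 min at room temperature. After a 10 s baseline, compound was added and calcium influx was read kinetically for 3 min (ex 480/em 520 nm).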
# Menin MLL FP FL: menin-MLL binding inhibition, fluorescein peptide; Fluorescence polarization, fluorescein-MLL peptide displacement from menin; FP activity change, % at 61.4 µM; 290,000 tested, under 10 active; AID 1766; inconclusive = falling polarisation curve, or a change in total fluorescence; inactive = total fluorescence flat and polarisation flat or rising; no compound was filed as active; the % refers to the polarisation; negative = inhibition;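 also: % of control where 0% means no effect; inhibitors lower the polarisation; unlabelled MLL peptide was the positive control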
# gsp antag: gsp mutant antagonism. AID 624288. Potency, µM (series often up to 76.9 µM), inactives show at the top dose activity change, negative = inhibition, usual class: inhibitors. gsp-mutant cells, cAMP HTRF, 30 min; control for the full effect not named in the record. 340,000 compounds, 0.4% hits; active = falling curve of any shape with a large fitted effect; inconclusive = falling curve, mostly with a smaller effect; inactive = flat or rising curve; cell line not stated here;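 also: intracellular cAMP measured with PDE inhibitor Ro 20-1724 present during compound exposure; potency is read from the fitted curve at half-maximal effect; % is scaled to controls: 0 for no effect and ±100 for the full control effect; nearly all actives have a fitted effect of over 65% in size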
#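 Measurement of cellular cAMP by homogeneous time-resolved fluorescence following a 30 min compound exposure at 37C. The PDE inhibitor […] was present throughout; the assay buffer was DPBS with 0.05% BSA and 0.005% Tween 20.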
# D2 PAM: positive allosteric modulators of human D2 dopamine receptor; P14416; DiscoveRx D2 beta-arrestin cells, luminescence, 90 min; 100% = 57 uM dopamine signal; potentiation, % (test concentration not listed); 360,000 compounds, 0.23% hits; active = potentiation of 50% or more; inconclusive = 30% to 50%; inactive = 30% or less;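 also: compound concentration not given in the record; tested on top of an EC20 dose of dopamine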
#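 PathHunter D2 cells, attached overnight at 37 deg C, received compound in DMSO plus dopamine at EC20 (50 nM final) for 90 min at 37 deg C. Beta-arrestin recruitment was read as luminescence after 1 h with detection reagent at ambient temperature.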
# The depositor's hits bear a star; u = inconclusive; x = no result given; [ ] = another dose, or the depositor's remark. This is a random part of the collection; any-hit rate near 5.1%.
no.	smiles	ClpP mod	Sfp PPTase inh	gsp agonist	TRPV1 potentiator
1	CN(Cc1nc(-c2cccs2)no1)CC(O)c1ccccc1 (stereo unspecified)	x	7%	-13%[15.4 µM]	-5
2	O=C1c2ccccc2C(=O)N1CCCCn1c(=O)oc2ccccc21	1.3%	-18%	-10%	-13
3	COC(=O)CCN(C1CCCCC1)S(=O)(=O)c1ccc(S(=O)(=O)N2CCCCC2)cc1	0.9%	2%	1%	-11
4	COc1cccc(CC(C(=O)Nc2cc(C)ccc2C)c2nn[nH]n2)c1OC (stereo unspecified)	1.1%	-10%	-9%	x
5	Cc1noc(C)c1NC(=O)N1CCN(Cc2ccccc2)CC1	1.5%	16%	-2%[15.4 µM]	x
6	COc1ccc2c(c1)/C(=C/c1cc(OC)c(OC)c(OC)c1)C(=O)N2	60%	x	-44%[inhibitor]	x
7	CCCCNC(=O)OC1CCS(=O)(=O)C1 (stereo unspecified)	-3.4%	19%	10%	4
8	N#CC[n+]1cc(-c2ccc(Cl)cc2)n2c1CCC2	0.0%	-8%	-18%	3
9	CCc1ccc(C2CC(c3ccccc3C)n3nc(N)nc3N2)cc1 (stereo unspecified)	-2.0%	4%	4%	6
10	CCN(CC)S(=O)(=O)c1cc(C(=O)OCC(=O)Nc2cccc(S(=O)(=O)N(C)C)c2)ccc1F	x	16%	-31%[inhibitor]	-10
11	CCOc1cccc(C2C(C(=O)c3ccc(C)o3)=C(O)C(=O)N2c2nnc(C)s2)c1 (stereo unspecified)	x	x	-12%[15.4 µM]	x
12	Cc1cccc(NS(=O)(=O)c2cccc(C(=O)NCCCN3CCOCC3)c2)c1	x	x	5%[15.4 µM]	-7
13	CN(Cc1ccccc1)C(=O)COc1cccnc1[N+](=O)[O-]	0.1%	14%	6%	5
14	COc1cc(-c2nc3ccccn3c2/N=C/c2ccccc2)ccc1O	32µM*	-27%	5%	-1
15	COCCn1c(SCC(=O)N2CCCC2=O)nc2sc(C)c(C)c2c1=O	x	x	17%[15.4 µM]	-7

no.	Menin MLL FP FL	gsp antag	D2 PAM
1	-0.3	-6%	-7
2	6.7	-8%	-7
3	2.1	2%	-8
4	-0.4	0%	-10
5	3.8	-11%	-21
6	x	0%	-8
7	0.2	7%	-7
8	3.7	15%	-11
9	1.6	3%	-3
10	-0.8	6%	-8
11	x	13%	-2
12	x	7%	7
13	-0.3	6%	-3
14	1.1	-14%	u
15	x	3%	0

# Reprinted at random: five records from the list
no.	smiles	ClpP mod	Sfp PPTase inh	gsp agonist	TRPV1 potentiator
14	COc1cc(-c2nc3ccccn3c2/N=C/c2ccccc2)ccc1O	32µM*	-27%	5%	-1
4	COc1cccc(CC(C(=O)Nc2cc(C)ccc2C)c2nn[nH]n2)c1OC (stereo unspecified)	1.1%	-10%	-9%	x
3	COC(=O)CCN(C1CCCCC1)S(=O)(=O)c1ccc(S(=O)(=O)N2CCCCC2)cc1	0.9%	2%	1%	-11
13	CN(Cc1ccccc1)C(=O)COc1cccnc1[N+](=O)[O-]	0.1%	14%	6%	5
7	CCCCNC(=O)OC1CCS(=O)(=O)C1 (stereo unspecified)	-3.4%	19%	10%	4

no.	Menin MLL FP FL	gsp antag	D2 PAM
14	1.1	-14%	u
4	-0.4	0%	-10
3	2.1	2%	-8
13	-0.3	6%	-3
7	0.2	7%	-7

# The list goes on:
no.	smiles	ClpP mod	Sfp PPTase inh	gsp agonist	TRPV1 potentiator
16	Cn1c(=O)c2cc(S(=O)(=O)NC(C(=O)N3CCCCCC3)c3ccccc3)ccc2n(C)c1=O (stereo unspecified)	-3.5%	-4%	u	-5
17	CNC(=O)[C@@]1(Cc2ccccc2)C=C[C@@H](C)N1C(=O)OC	-0.6%	-6%	-1%	x
18	COc1ccc2c(c1)nc(NCCO)n2C	-1.9%	6%	-11%	9
19	Cn1cc(SCC(=O)N2CCN(c3ccccc3)CC2)c2ccccc21	1.0%	-21%	-10%	-9
20	COc1ccc(-n2nc([N+](=O)[O-])c(=NCCc3ccc(C)cc3)n2O)cc1	x	-4%	14%	8
21	O=C(/C=C\c1cn(-c2ccccc2)nc1-c1cccs1)N1CCOCC1	u	-7%	1%[15.4 µM]	9
22	O=C(Nc1ccc(Cl)cc1)c1ccc(CN2CCc3ccccc3C2)cc1	0.8%	10%	-1%	-9
23	O=C1NC(c2cccc3ccccc23)Nc2ccc(Cl)cc21 (stereo unspecified)	u	x	2%	x
24	CN(Cc1ccn[nH]1)C(=O)C1CCC(=O)N(Cc2cccc(C(F)(F)F)c2)C1 (stereo unspecified)	-0.7%	13%	-10%	-6
25	COc1cccc(N(CC(=O)Nc2cccc(N(C)S(C)(=O)=O)c2)S(C)(=O)=O)c1	-0.4%	6%	28%	0
26	O=C(CN1CCN(CCN2C(=O)c3cccc4cccc(c34)C2=O)CC1)c1ccc(F)cc1	u	-13%	u	-11
27	c1ccc(C2CC3CC(c4ccccc4)N2O3)cc1 (stereo unspecified)	-2.1%	x	-9%	x
28	CC(C)(C)c1ccc(OCCCC(=O)NC2=NCCS2)cc1	-1.6%	5%	-12%	-20
29	Cc1cc(NC(=O)C(C)SCC(=O)N(C)Cc2ccccc2F)no1 (stereo unspecified)	1.8%	x	24%	-3
30	CC(Sc1ccc2c(c1)OCCO2)C(=O)Nc1ncc(Cl)cc1Cl (stereo unspecified)	3.9%	-9%	u	5

no.	Menin MLL FP FL	gsp antag	D2 PAM
16	-1.5	6%	-2
17	0.5	8%	-8
18	0.2	-3%	7
19	-0.6	-2%	-9
20	-5.0	0%	71*
21	0.7	-24%	-1
22	0.9	-1%	-4
23	x	23%	-4
24	x	-2%	-6
25	-2.8	-10%	-11
26	1.6	-7%	-23
27	x	-14%	-2
28	-0.2	-23%	-1
29	x	-1%	-1
30	2.6	-13%	-5

# Exported field by field: part of the list above
21. O=C(/C=C\c1cn(-c2ccccc2)nc1-c1cccs1)N1CCOCC1
  ClpP mod: u | Sfp PPTase inh: -7% | gsp agonist: 1%[15.4 µM] | TRPV1 potentiator: 9 | Menin MLL FP FL: 0.7 | gsp antag: -24% | D2 PAM: -1
22. O=C(Nc1ccc(Cl)cc1)c1ccc(CN2CCc3ccccc3C2)cc1
  ClpP mod: 0.8% | Sfp PPTase inh: 10% | gsp agonist: -1% | TRPV1 potentiator: -9 | Menin MLL FP FL: 0.9 | gsp antag: -1% | D2 PAM: -4

# (listing goes on)
no.	smiles	ClpP mod	Sfp PPTase inh	gsp agonist	TRPV1 potentiator
31	O=S(=O)(c1cccc(F)c1)N1CCN(Cc2cc3c(cc2Br)OCCO3)CC1	2.4%	x	-51%[inhibitor]	-12
32	COc1cccc(NC(=O)COC(=O)c2ccc(S(=O)(=O)NCc3ccco3)cc2)c1	0.6%	7%	-24%	6
33	COc1ccc(OC)c(NC(=O)CCN2CCCCC2)c1	0.7%	1%	22%	3
34	CO/N=C/c1cccn1-c1nccc(N(C)C)c1C#N	x	-1%	22%	0

no.	Menin MLL FP FL	gsp antag	D2 PAM
31	x	-7%	-2
32	1.3	1%	-6
33	-1.8	9%	-7
34	2.5	8%	0

# Screening data (PubChem)
